NPYLR7 agonist – mosquito NPYLR7 agonism; 270,000 compounds, 0.15% hits; activation, % at 10 µM; HEK293T NPYLR7/Galpha15, GCaMP6s calcium fluorescence; in the data active = activation above about 40%;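 also: 0% = vehicle and 100% = reference agonist at the receptor; some compounds past the cut are filed as inactive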
NPYLR7 agonist max-min – further read-out of NPYLR7 agonist, marked with its call; activation, %; measured here: Max-Min RFU normalised activation; some inactives read as strong as hits;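 span of the calcium signal over five minutes; 0% = vehicle and 100% = native peptide agonist; compound fluorescence can raise it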
Active calls of the source: *; & = joins results of further samples. Only part of the results is shown; rates above refer to the full screens.

SMILES	NPYLR7 agonist	NPYLR7 agonist max-min
CC(C)c1cc(C2CCN(C(=O)CCn3nnc4ccccc43)CC2)[nH]n1	9	10
COC(=O)CN1CCN(Cc2ccnc3ccccc23)C(C)C1=O (centres undefined)	0	1
CC(c1ccc(F)cc1)N(C)C(=O)CCCN1C(=O)NC2(CCCC2)C1=O (centres undefined)	5	1
CS(=O)(=O)c1ccc(NC(=O)C=Cc2ccc3c(c2)CCO3)cc1	-1	7
c1cc(C2CCCC2)nc(NCC2CCCCO2)n1 (centres undefined)	19	3
CSc1ccccc1NC(=O)C1(C)CCN1C(=O)Cc1cc(F)ccc1F (centres undefined)	3	3
CCn1nccc1C(=O)N(CCCN1CCOCC1)c1nc2ccc(C)cc2s1	0	2
COC(=O)c1sc2cccc(F)c2c1S(=O)(=O)Nc1cc(C)c(Cl)cc1OC	4	10
O=C(CCCN1C(=O)c2cccc3cccc(c23)C1=O)OCC=Cc1ccccc1	-4	-11
COC(=O)c1ccccc1NC(=O)c1c(C)c(-c2ccc(C)cc2)nc2ccccc12	-1	-6
CN(C)CCC=C1c2ccccc2CCc2ccccc21	0&-3&-11&1&6	-9&-6&-16&-4&-10
Clc1ccc(-n2nnc3c(N4CCNCC4)ncnc32)cc1	-6	-7
CC(C)(C)C(=O)NCCn1ccc2ccccc21	1	0
Cc1nc2ncc3c(=O)n(-c4ccccc4C(F)(F)F)ccc3n2n1	2	6
c1csc(-c2nc(CSc3ncnc4sccc34)co2)c1	2	1
CCOC(=O)N1CCN(C(=O)c2cc3n(n2)CCN(Cc2cccc(F)c2)C3=O)CC1	15	19
CN(CCCNS(=O)(=O)c1ccc(F)c(F)c1)Cc1ccccc1	-10	-10
COCCn1c(=O)c2c(nc3n2CC(C)CN3c2ccc(Br)cc2)n(C)c1=O (centres undefined)	0	1
Brc1c(NC2=NCCN2)ccc2nccnc12	5&0	-1&-17
CCN1CC2([N+](=O)[O-])C(=O)CC3OC(C)CC2C3([N+](=O)[O-])C1 (centres undefined)	0	1
O=c1oc2ccccc2n1CN(C1CC1)C1CCS(=O)(=O)C1 (centres undefined)	1	-1
CN(C)C(=O)c1cc(C(F)(F)F)[nH]n1	11	6
CCCCSc1nsc(NC(C)=O)n1	0	6
CCCCCCCC(=O)[C@H](CC(C)C)N1CC[C@@]2(CCCN2C(=O)CCC(C)=O)C1=O	1	-1
CN1CCN(C)C2(CCN(C(=O)c3ccc(-c4ccn[nH]4)cc3)CC2)C1	12	11

The list goes on, starting with the last 6 of the part before.
SMILES	NPYLR7 agonist	NPYLR7 agonist max-min
CCN1CC2([N+](=O)[O-])C(=O)CC3OC(C)CC2C3([N+](=O)[O-])C1 (centres undefined)	0	1
O=c1oc2ccccc2n1CN(C1CC1)C1CCS(=O)(=O)C1 (centres undefined)	1	-1
CN(C)C(=O)c1cc(C(F)(F)F)[nH]n1	11	6
CCCCSc1nsc(NC(C)=O)n1	0	6
CCCCCCCC(=O)[C@H](CC(C)C)N1CC[C@@]2(CCCN2C(=O)CCC(C)=O)C1=O	1	-1
CN1CCN(C)C2(CCN(C(=O)c3ccc(-c4ccn[nH]4)cc3)CC2)C1	12	11
Cc1[nH]c(=O)[nH]c(=O)c1-c1ccc(-n2cccn2)cc1	-1	-8
CCN(CC)c1cc(Cl)nc(SCC(=O)NC(c2ccccc2)c2ccccc2)n1	17	13
CN(Cc1ccccc1Br)Cn1c(=O)oc2ccccc21	-8	-11
CN(C)CCN(C(=O)c1ccc(F)cc1)c1nc2ccc(Cl)cc2s1	-3	-7
Nc1cnn(-c2ncc(Cl)cc2Cl)c1	-4	-6
CC1(C)C2CC=C(C=NNc3ccccc3[N+](=O)[O-])C1C2 (centres undefined)	8	7
O=C(NC1CC1)C(c1ccccc1)N1CCC(c2ccccc2)C1 (centres undefined)	6	4
CC1=CC(C)C(/C=N\n2cnnc2)C(C)C1 (centres undefined)	0	-2
CCCC(C)COC(=O)C1=C(C)NC(=O)NC1c1ccc(N(C)C)cc1 (centres undefined)	-16	-19
CCCC(O)(CCC)c1ccc(CN(CCCOC)Cc2cccc(C)c2)o1	-1	3
Cc1cnc(C(=O)Nc2cc(Cl)cc(Cl)c2)cn1	-20	-18
Cc1cc2cc(CNC(=O)CCC3CCCC3)ccc2n1C	0	-1
Cc1cc(C(=O)CSc2nnc(C3CC3)o2)c(C)n1Cc1cccs1	0	0
CNC(=O)COc1ccc(-c2c(F)cccc2OC)cc1	-2	-1
COc1ccccc1CN1CC(C(=O)N2CC(c3ccncc3)C2)CC1=O (centres undefined)	1	-1
O=C1c2cccc3cccc(c23)C(=O)N1Cc1cccnc1	-2	-6
C=CCOc1ccc(C=c2sc3n(c2=O)C(c2cccs2)C(C(=O)OC)=C(C)N=3)cc1 (centres undefined)	-6	-9
Cn1nc(-c2ccccc2)cc1C(=O)N1CCCC(c2cc(=O)[nH]cn2)C1 (centres undefined)	8	6
CCCCC(CC)C(=O)Nc1c(-c2ccc(OC)cc2)nc2cc(C)ccn12 (centres undefined)	-7	-1
CCCc1nc(N2CCN(C(=O)c3cccc([N+](=O)[O-])c3)CC2)c2c(-c3cccc(C(F)(F)F)c3)noc2n1	14	27
CC(=C\c1ccccc1)/C=C1/N=C(c2cccc([N+](=O)[O-])c2)OC1=O	-2	-1
CCCCC(CC)CNC(=O)C1CCC(Cn2c(=O)[nH]c3ccsc3c2=O)CC1 (centres undefined)	-2	-4
COc1ccc(-c2onc(C)c2C(=O)NCCc2ccc(OC)nc2)cc1	8	15
CCC1CCCCN1C(=O)Nc1nnc(C(F)(F)F)s1 (centres undefined)	2	0
O=S(=O)(Nc1cc(F)ccc1F)c1ccc(Cl)s1	9	10
Additional results:
SMILES	NPYLR7 agonist	NPYLR7 agonist max-min
COc1ccc(-c2c(C)nn3c(Nc4ccc(C)cc4)cc(C)nc23)cc1OC	-1	-3
COC(=O)c1cccnc1N1CCCC(C(=O)c2ccc(SC)cc2)C1 (centres undefined)	2	-3
Cc1nonc1CC(=O)N1CCC(N2CCC(C(=O)NCC3CCCO3)CC2)CC1 (centres undefined)	0	-1
Cc1cc(C(=O)NCCSc2nnnn2C)c2ccc(F)cc2n1	29	23
O=S(=O)(c1cccc(Br)c1)N(Cc1ccccn1)C1CCSC1 (centres undefined)	5	3
O=C(NC(c1ccccc1)c1cnccn1)C1CCN(Cc2ccc(Oc3ccccc3)cc2)CC1 (centres undefined)	-1	8
CCn1nnc2c(Nc3ccc(F)c(Cl)c3)ncnc21	7	13
Cc1cccc2c1NC1(CCN(C(=O)c3cccc(F)c3)CC1)NC2=O	12	5
CC(C)CNC(=O)NC(=O)CSc1nc2ccccc2s1	-6	-11
CC(C)Oc1nc(-c2ccc(Cl)c(Cl)c2)n(-c2cccc(NC(=O)c3cccc(F)c3)c2)n1	15	9
Cc1ccc(OCC(=O)NNC(=O)c2ccccc2Cl)cc1	-5	-8
c1ccc(-c2ncc(CN3CCCn4cncc4C3)cn2)nc1	-1	-2
Cc1cc(C)n(C2CN(c3ncnc4sc(C)c(C)c34)C2)n1	-8	-9
CSc1ccc2cc(CN3C[C@@H](C)O[C@@H](C)C3)c(=O)[nH]c2c1	-4	-5
COCCCN(CC(=O)N1CCc2sccc2C1COc1ccccc1OC)S(=O)(=O)c1ccc(Cl)cc1 (centres undefined)	-1	3
COc1ccc(C2=NN(C(C)=O)C(c3ccccc3)C2)cc1 (centres undefined)	-5	-10
Cc1sc2ncnc(SCC(=O)C(C)(C)C)c2c1C	9	8
CC(=O)c1cc2cc(Br)ccc2o1	0	5
Cc1nc2cc(C(=O)c3ccccc3)ccc2[nH]c1=O	10	5
COc1ccc(OC)c(NC(=O)Nc2nn(Cc3ccc(COc4ccc5c(c4)OCO5)cc3)c3ccc(C(F)(F)F)cc23)c1	11	11
COc1ccc(-c2nc3ccccn3c2NC(=O)C2CC2)cc1OC	-9	1
CCc1noc(C(C)N2CC(C)C(N3CCCN(C(C)=O)CC3)C2)n1 (centres undefined)	7	3
O=C(c1cc2n(n1)CCN(C(=O)c1cccc3cnccc13)C2)N1CCCC1	-11	-20
COC(=O)C1=C(C)N(C)C(C)=C(C(=O)OC)C1c1cccc([N+](=O)[O-])c1	-6	-4
O=C(NCCc1c[nH]c2ccccc12)c1cc2nc(-c3ccc(Cl)cc3)cc(C(F)(F)F)n2n1	0	1
Continuation:
SMILES	NPYLR7 agonist	NPYLR7 agonist max-min
CC(C)Cc1ncc2c(n1)CN(C(=O)CCc1ccc3c(c1)OCO3)C2	4	5
O=C(NCCCC(=O)N1CCCc2ccc(F)cc21)c1ccsc1	-5	-6
O=C(Nc1ccc(N2CCCC2)c(F)c1)OCC(F)(F)F	6	5
CC1CCc2c(sc(N3CCCC3=O)c2C#N)C1 (centres undefined)	4	5
O=C(NC[C@H]1C[C@H]2C=C[C@H]1C21CC1)C1CCN(Cc2ccco2)CC1	22	5
O=S1(=O)CCC(Cc2nc(CCc3ccccc3)n[nH]2)C1 (centres undefined)	12	-3
O=C(NCc1cccc(F)c1)c1ccccc1N1CCC(NC(=O)C2CCCC2)CC1	-5	0
CN(CC(=O)Nc1ccccc1)OCc1ccccc1	2	-1
Cn1cc(NC(=O)NC2(c3cccc(Br)c3)CC2)cn1	-5	-5
CC(C)(C)C(=O)Nc1nnc(C23CC4CC(CC(C4)C2)C3)s1	-4	-11
COC(=O)N1CCc2onc(-c3ccc(-c4ccccc4)cc3)c2C1	2	-4
CCOC(=O)C1C(=O)CC(C)(O)C(C(=O)OCC)C1c1ccccc1 (centres undefined)	5	8
O=C(Nc1ccc(N2CCN(C(=O)Cc3cccs3)CC2)nn1)c1ccccc1	11	4
Cc1ccc(Cc2nc(N3CCCN(C(=O)NC4CCCCC4)CC3)c3c(C)nn(-c4ccccc4)c3n2)cc1	0	2
C=CCNC(=S)NN=C1CCC=C1CCCCC	8	7
CN(C)CCCn1ccc2c(cnc3nc(-c4cccnc4)nn32)c1=O	6	10
COc1ccc(NC(=O)N2CCN(CC(OCc3ccc(C)cc3)c3cccc(OC)c3)CC2)cc1 (centres undefined)	-2	2
CCS(=O)(=O)c1cccc(C(=O)N(Cc2ccccn2)c2nc3c(OC)ccc(C)c3s2)c1	-3	-5
Cc1ccc2nc(NC(=O)CSc3nc(=O)n(CC4CCCO4)c4c3CCC4)sc2c1 (centres undefined)	-4	-10
CCOC(=O)C1CCCCN1CC(=O)N1N=C(c2cc(C)ccc2C)CC1c1cc(OC)ccc1OC (centres undefined)	0	1
CN(c1ccccc1)c1ccccc1NCC(=O)N1CCOCC1	1	2
COc1ccc(Nc2cc(C)nc(NCCNC(=O)c3c(F)cccc3F)n2)cc1	11	9
C=CCn1c(SCC(=O)Nc2ccc(Br)cc2)nc2sc3c(c2c1=O)CCC3	-7	-11
COc1cccc(NC(=O)c2cc3ccccc3oc2=O)c1	0	7
COCC(=O)Nc1ccc(N2CCN(C(=O)c3cccnc3Cl)CC2)nc1	-2	9

The closing 6 records of the part above come first, to join the parts:
SMILES	NPYLR7 agonist	NPYLR7 agonist max-min
CCOC(=O)C1CCCCN1CC(=O)N1N=C(c2cc(C)ccc2C)CC1c1cc(OC)ccc1OC (centres undefined)	0	1
CN(c1ccccc1)c1ccccc1NCC(=O)N1CCOCC1	1	2
COc1ccc(Nc2cc(C)nc(NCCNC(=O)c3c(F)cccc3F)n2)cc1	11	9
C=CCn1c(SCC(=O)Nc2ccc(Br)cc2)nc2sc3c(c2c1=O)CCC3	-7	-11
COc1cccc(NC(=O)c2cc3ccccc3oc2=O)c1	0	7
COCC(=O)Nc1ccc(N2CCN(C(=O)c3cccnc3Cl)CC2)nc1	-2	9
Fc1ccccc1Nc1nc(NCC2CCCO2)c2ccccc2n1 (centres undefined)	6	7
CCCN(CC(=O)N(CCc1c[nH]c2ccccc12)Cc1ccc(C)cc1)C(=O)c1ccc2c(c1)OCO2	-1	3
NC(=O)CCOc1nc(-c2ccccc2Cl)no1	2	-2
C=CCC(=O)N(CC=C)Cc1cccc(OC)c1	10	3
CCOC(=O)c1cc(C)[nH]c1C	18	10
COc1cccc2cc(C(=O)N3CCN(C)CC3)c(=O)oc12	0	0
CCCC(=O)OCC(=O)Nc1ccc(C)c(S(=O)(=O)N2CCCCC2)c1	-1	-1
Cc1ccc(-c2cc3c(=O)n(Cc4cccc(C(F)(F)F)c4)ccn3n2)cc1C	0	-3
COc1ccc(NC(=O)N(Cc2cccc(OS(=O)(=O)c3cccc(C(F)(F)F)c3)c2)Cc2ccco2)cc1	-1	8
CCCN(C)S(=O)(=O)NC(C)c1ccc(OC)c(F)c1 (centres undefined)	-1	0
Cc1ccc(N=Cc2cccc(C)c2O)c(O)c1	-2	-11
CCC(CC)n1ncc2c1NC(=O)CC2c1ccc(O)c(C(=O)OC)c1 (centres undefined)	7	-1
Cc1ccc2nc(C)n(C3CCN(C(=O)C4CC=CCC4)CC3)c2c1 (centres undefined)	11	20
CC(NC(=O)C1CCC1)c1ccc(-n2ccnc2)cc1 (centres undefined)	5	6
CCCCc1[nH]nc2ccnc(-c3cccc(O)c3)c12	3	3
CN1CC[C@H](NC(=O)COc2ccccc2)C[C@H](O)C1	4	14
Cn1c(C(=O)NCCn2ccnc2)cc(Cl)c1Cl	2	0
Cc1cc2nc(CN(C)Cc3nc(-c4cccc(Cl)c4)no3)[nH]c2cc1C	-6	-8
COc1ccccc1-c1cccc(C(=O)N2[C@@H]3CC[C@H]2CC(O)C3)c1 (some centres undefined)	7	4
Cc1nnc(SCC(=O)NCCn2cc(Cl)cn2)s1	0	4
CN1CCN(c2ccccc2NC(=O)C2CCCO2)CC1 (centres undefined)	12	13
Cc1c(C(=O)NCc2ccc(C#N)cc2)sc(=O)n1CCc1ccccc1	17	12
COC(=O)c1cc(Br)ccc1OC(=O)c1ccco1	-1	-4
COc1c(Cl)c(C)c(Cl)c(C)c1Br	8&2	4&0

Two compounds picked at random from those above:
SMILES	NPYLR7 agonist	NPYLR7 agonist max-min
CC(NC(=O)C1CCC1)c1ccc(-n2ccnc2)cc1 (centres undefined)	5	6
Cc1c(C(=O)NCc2ccc(C#N)cc2)sc(=O)n1CCc1ccccc1	17	12
